HPGD block: inhibitors of human 15-hydroxyprostaglandin dehydrogenase (HPGD); purified HPGD, NADH fluorescence kinetic, PGE2 substrate; Potency, µM, for inactives: at the top dose activity change, negative = inhibition, usual class: inhibitors; 4.3% of 150,000 active; P15428; active = well fitted inhibition curve with a large enough effect (not every such curve was filed as active); inconclusive = small, poorly fitted or top-dose-only effect, or another doubt; inactive = no such curve, though single readings can be large or run the other way;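 note: top concentration of the series not given in the record; plate controls included wells without enzyme; inactives centre near -10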
Target sequence (P15428 whole entry, looked up): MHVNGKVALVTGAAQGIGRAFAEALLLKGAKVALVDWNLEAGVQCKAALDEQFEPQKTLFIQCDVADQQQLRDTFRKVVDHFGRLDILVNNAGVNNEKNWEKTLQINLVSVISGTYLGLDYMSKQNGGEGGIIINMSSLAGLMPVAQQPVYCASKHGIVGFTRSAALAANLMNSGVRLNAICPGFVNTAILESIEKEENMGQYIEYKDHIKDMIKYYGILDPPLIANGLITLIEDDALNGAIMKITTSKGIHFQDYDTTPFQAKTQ
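20 nM HPGD preincubated 15 min at room temperature with compound in 50 mM Tris-HCl pH 8, 0.01% Tween 20. Started with 1 mM NAD+ and 30 uM prostaglandin E2; NADH fluorescence (360/450 nm) read 5 times over 30-s intervals, last minus first.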
Active calls of the source: *; ? = inconclusive; & = joins results of further samples. % is set by controls: 0 for no effect and ±100 for the full control effect; potency is the fitted concentration of half-maximal effect. This is a subset. The share of hits here may be higher or lower than overall.

HPGD block,structure
-1%,Cn1nnc(NC(=O)c2cccc(OCc3ccccc3)c2)n1
-25%,Cn1nc(C(=O)Nc2c(-c3ccccc3)nc3sccn23)c2ccccc2c1=O
22µM*,O=C(CSc1ncn[nH]1)c1ccccc1
-1%,CCOC(=O)c1nn(-c2ccc(OCC)cc2)c(C)c1C(C)=O
-6%,O=C1C2CC=CCC2C(=O)N1c1nc2n(n1)C(c1ccccc1)CC(c1ccccc1)N2 (stereo not drawn)
-5%,COc1ccccc1N1CCN(C(=O)C2CCN(S(=O)(=O)c3ccc(Cl)cc3)CC2)CC1
-4%,CCC(C)NC(=O)C(=O)NC1CCCC1 (stereo not drawn)
?,Cc1cc(Cl)ccc1OCCCC(=O)NCc1ccncc1
-8%,CCOC(=O)C1CCN(C(=S)Nc2cccc(C)c2C)CC1
?,COc1cccc(Nc2nc3ccccc3nc2-n2nc(C)cc2C)c1
-7%,Cc1cc2ncn(-c3nnnn3-c3ccccc3)c2cc1C
16µM*,Cc1sc2nc(SCC(=O)N3CCOCC3)[nH]c(=O)c2c1C

Taken from above:
Cn1nnc(NC(=O)c2cccc(OCc3ccccc3)c2)n1 in HPGD block shows -1%
O=C1C2CC=CCC2C(=O)N1c1nc2n(n1)C(c1ccccc1)CC(c1ccccc1)N2 (stereo not drawn) in HPGD block shows -6%
Cc1cc2ncn(-c3nnnn3-c3ccccc3)c2cc1C in HPGD block shows -7%
CCC(C)NC(=O)C(=O)NC1CCCC1 (stereo not drawn) in HPGD block shows -4%
Cc1sc2nc(SCC(=O)N3CCOCC3)[nH]c(=O)c2c1C in HPGD block shows 16µM*
O=C(CSc1ncn[nH]1)c1ccccc1 in HPGD block shows 22µM*

(more compounds)
HPGD block,structure
-25%,CCOC(=O)C1=C(CSc2nc3c(cc2C#N)CN(C)CC3)OC(N)=C(C#N)C1c1ccccc1 (stereo not drawn)
-19%,CCCSc1nc2c(=O)[nH][nH]c(=O)c2n1Cc1ccccc1
-15%,C=CCn1c(SCC(=O)Nc2cccc(OC)c2)nnc1-c1cccnc1
8%,CCOC(=O)C(C)Sc1nc2c(c(-c3cccs3)c1C#N)CCC2 (stereo not drawn)
-1%,CSc1ccc(S(=O)(=O)N2CCCC2)cc1
?,Cc1nn(-c2ccccc2)cc1C(=S)Nc1ccccc1
-30%,COc1ccc(OC)c(N/C(C)=C/C(=O)c2ccccc2)c1
-17%,C=CCN(CC=C)C(=S)NC(=O)/C=C/c1ccccc1
-5%,CCCCCC(O)(CCCCC)C(=O)NNc1ccccc1
-3%,COc1cccc(C(C(=O)NC(C)(C)C)N(C(=O)CCC(=O)Nc2cc(C)on2)C(C)(C)C)c1OC (stereo not drawn)
-5%,O=C(NC1CCCCC1)C(c1ccccc1F)N(Cc1ccco1)C(=O)Cn1nnc2ccccc21 (stereo not drawn)
-25%,COc1ccc2c(c1OC)C(=O)OC2Nc1nc(-c2cc3ccccc3oc2=O)cs1 (stereo not drawn)
-8%,COc1cccc(/C=N/NC(=O)Cn2ccnc2C)c1
-9%,O=C(Nc1nccs1)NC(C(F)(F)F)C(F)(F)F
-18%,COC(=O)c1cccc(NS(=O)(=O)c2ccc(OC)cc2)c1C
-2%,O=C(O)c1ccccc1C(=O)Nc1nccs1
3%,O=C(NNS(=O)(=O)c1ccc(F)cc1F)C1Cc2c(ccc3ccccc23)O1 (stereo not drawn)
-13%,CCC(c1nnnn1Cc1ccccc1)N(Cc1cc2cc(OC)ccc2[nH]c1=O)CC1CCCO1 (stereo not drawn)
-6%,CCOC(=O)C(CC)Sc1nnc(COc2ccc(C)cc2)n1-c1ccccc1 (stereo not drawn)
2%,COc1ccccc1N1CCN(CCCCN2C(=O)CCC2=O)CC1
?,COC(=O)c1ccccc1NC(=O)CSc1nc(NC(=O)c2ccccc2)c2c(C)c(C)oc2n1
-14%,CCc1ccc2c(c1)C(=O)c1ccccc1C2=O
?,CCn1c2ccccc2c2cc(NC(=O)COc3ccccc3OC)ccc21
-9%,O=C(O)C(Cc1ccccc1)Cc1ccccc1
1%,Cn1ncc(Br)c1C(=O)Nc1c(F)c(F)cc(F)c1F
-3%,COCCn1c(=O)c(-c2cn(C)c3ccccc23)nc2cnc(Oc3ccccc3)nc21
-4%,Cn1c(CCC(=O)OCC(=O)Nc2ccc(Oc3ccccc3)cc2)nc(=O)c2ccccc21
4%,Cc1ccc(NC(=O)C2CCN(S(=O)(=O)c3cnc[nH]3)CC2)cc1C
-9%,CCOc1cc(OCC)c(C(C)=O)cc1OCC
?,CNC(=O)c1cc2cc(OC)ccc2oc1=O
-15%,CCCC/C(O)=C1\C(=O)CC(C)(C)CC1=Nc1ccc(OC)cc1
-12%,CC(=O)Nc1ccc(OC(=O)CC2SC(=O)NC2=O)cc1 (stereo not drawn)
-8%,Cc1ccc(NC(=O)COc2ccc(/C(N)=N/O)cc2)cc1C
-15%,Cc1ccc(Nc2nnc(SCC(=O)c3cc4ccccc4o3)s2)cc1C
-8%,Cc1ccc(CN(Cc2ccco2)S(=O)(=O)c2ccc(S(=O)(=O)NCC3CCCO3)cc2)cc1 (stereo not drawn)
-12%,Cc1cc(C)cc(OCC(=O)NNC(=O)CCN2C(=O)c3ccccc3C2=O)c1
-9%,CCC(=O)Nc1ccc(Nc2nc(C)c([N+](=O)[O-])c(Nc3ccc(NC(=O)CC)cc3)n2)cc1
-5%,C=CCNC(=O)NC(=O)COC(=O)COc1ccc(Br)cc1F
-18%,Cc1nnc(SCCN2CCOCC2)n1C
-1%,O=S(=O)(c1ccccc1Cl)N1CCC(O)(c2ccc3c(c2)OCO3)CC1
-5%,COC(=O)c1ccc(NC(=S)Nc2ccccn2)cc1
-17%,CCn1c(SCC(=O)N2CCCC2)nnc1-c1ccc(N)cc1
-10%,CCOC(=O)c1c(C)sc2c1N(C(=O)CN(CC)CC)c1cc(Cl)ccc1S2
-14%,CC(=O)/C(C(=N)N1CCN(Cc2ccccc2)CC1)=C(\C)O
-6%,CCN(CCCNC(=O)CN1C(=O)COc2ccccc21)c1cccc(C)c1
-6%,CC1CCN(C(=O)Cn2cc3c(n2)CCCC3)CC1
-9%,CC(C)O/C(=N\S(=O)(=O)c1ccc(Cl)cc1)c1ccccc1
-7%,COc1cc(C2c3c(n[nH]c3C)C(=O)N2c2ccc(Br)cc2)ccc1O (stereo not drawn)
-20%,CC(/C=N/NC(=O)Cn1nccc1C)=C\c1ccc(C(C)C)cc1
-9%,Cc1ccc(C)c2[nH]c(=O)c(CCNC(=O)c3cc4ccccc4o3)cc12
-5%,COc1ccccc1OCC(O)Cn1c(Br)nc2c1c(=O)[nH]c(=O)n2C (stereo not drawn)
35µM*,CCCCC(=O)Nc1c(C)cc(C)cc1Cl
-10%,c1ccc2c(c1)CNc1ccccc1C2
-4%,O=C(NC(=Nc1ccccc1)N1CCOCC1)Nc1ccccc1
1%,CN1CCN(C(=S)Nc2ccccc2Cl)CC1
-9%,CCCCCCCCCCCCC/C=C/[C@@H](O)[C@H](CO)NCCCCCCCC
28µM*,COc1ccc2c(c1)S/C(=C\C(=O)c1ccncc1)N2C
-13%,CCOc1ccccc1N1CCN(C(=O)c2c(-c3ccccc3Cl)noc2C)CC1
-5%,O=C1c2ccccc2C(=O)N1CCCc1nc(-c2ccncc2)no1
?,COc1ccc(-n2c(-c3ccco3)n[nH]c2=S)cc1

Remaining list, next part
HPGD block,structure
-2%,CCOc1ccccc1NC(=O)/C=C/C(N)=O
-9%,O=C1NC(=O)C(CC(=O)N(Cc2ccco2)C2(C(=O)NC3CCCCC3)CCCCC2)N1 (stereo not drawn)
-13%,Cc1nn(CCC#N)c(NC(=O)c2ccc(Cl)cc2)c1P(=O)(Nc1ccc([N+](=O)[O-])cc1)N1CCOCC1 (stereo not drawn)
-10%,O=C(CN(c1cccc(C(F)(F)F)c1)S(=O)(=O)c1ccc(Cl)c([N+](=O)[O-])c1)NCc1ccc(F)cc1
-10%,CN(C)C(=O)c1ccc2c(c1)C1C3CCC(C3)C1C(c1ccccc1)N2 (stereo not drawn)
2%,Cc1cc2ncn(C(=O)c3c(-c4ccccc4Cl)noc3C)c2cc1C
-6%&-15%,CCCCC(CC)COC(=O)C(C#N)=C(c1ccccc1)c1ccccc1 (stereo not drawn)
22µM*,CCCC(=O)c1ccc(N2CCCC2)c(F)c1
-8%,CCOC(=O)c1cnc2cc(C)nn2c1C
-11%,CCOc1ccccc1C1CC(=O)Nc2cc3c(cc21)OCO3 (stereo not drawn)
-12%,O=C(c1ccc(-n2c(SCc3cc(F)ccc3F)nc3ccccc3c2=O)cc1)N1CCOCC1
-7%,CCN1CCN(P2(=O)C=C(c3ccccc3)OC(c3ccccc3)=C2)CC1
-11%,O=C(CN(Cc1ccccc1Cl)C(=O)c1ccc(CN2CCOCC2)o1)NCc1ccccc1
?,Cc1cccc(C(=O)N2c3ccccc3C(=O)OC2c2ccc3c(c2)OCO3)c1 (stereo not drawn)
-14%,O=C(Nc1cc(Cl)cc(Cl)c1)c1cccc(OC(F)F)c1
-1%,Cc1ccc2nc(NCc3ccccc3)[nH]c2c1
18µM*,N#CC1=C(N)NC(SCC(=O)Nc2ccccc2)=C(C#N)C12CCCC2
-11%,CCc1ccccc1NC(=O)COc1ccc2c(=O)c(Oc3cc(C)ccc3C)coc2c1
-18%,Cc1nc(CC(=O)c2ccc(O)cc2O)cs1
-21%,COc1cc(/C=C(\C#N)c2nc3ccccc3[nH]2)cc(Br)c1OCc1ccc(F)cc1
?,O=S(=O)(Nc1ccc(-c2nc3cccnc3s2)cc1)c1ccc(Cl)s1
-7%,NC(=O)C1(N2CCCCC2)CCN(C(=O)CCCn2c(=O)[nH]c3ccsc3c2=O)CC1
-15%,COc1ccc2c(C(=O)CN(C)C3CCCCC3)c[nH]c2c1
?,COc1ccc(CC(=O)Nc2ccc(-c3noc(-c4cc(OC)c(OC)c(OC)c4)n3)cc2)cc1
-13%,COc1ccc2cnn(CCOc3ccccc3)c(=O)c2c1OC
3%,COCCn1nnnc1C(C(C)C)N1CCN(C(=O)c2ccco2)CC1 (stereo not drawn)
-15%,O=C(NNC(=O)C1CC1)c1ccc(-c2ccccc2)cc1
-9%,Cc1ccnc2nc(C(=O)OCCOc3ccccc3)nn12
1%,O=C(COC(=O)/C=C/c1cccc(Cl)c1)NCCC1=CCCCC1
-12%,Cn1c(=O)n(CCC(=O)O)c2ccccc21
-15%,CCOC(=O)C1(C)/C(=N/Nc2ccccc2)C(=O)C(=O)N1c1ccccc1 (stereo not drawn)
?,CCCCn1c(SCC(=O)Nc2ccc(OC)cc2)nc2ccc(N3CCOCC3)cc2c1=O
-10%,CC(C)Nc1cc(C(F)(F)F)nc(-c2ccccn2)n1
?,C=C(C)C1CCC(C)=C1COC(=O)Nc1ccccc1 (stereo not drawn)
-11%,O=C(NNC(=S)NC(=O)c1cccnc1)c1ccccc1
1%,COc1ccc(-n2c(C)cc(/C=C3/SC(=O)N(CC(=O)N4CCOCC4)C3=O)c2C)cc1

Sorted by SMILES length (smallest number first): some entries from above.
HPGD block,structure
-12%,Cn1c(=O)n(CCC(=O)O)c2ccccc21
-11%,O=C(NNC(=S)NC(=O)c1cccnc1)c1ccccc1
-10%,CC(C)Nc1cc(C(F)(F)F)nc(-c2ccccn2)n1

Shown with bars between the fields: entries from further up
smiles | HPGD block
C=C(C)C1CCC(C)=C1COC(=O)Nc1ccccc1 (stereo not drawn) | ?
O=C(NNC(=S)NC(=O)c1cccnc1)c1ccccc1 | -11%
COc1ccc(-n2c(C)cc(/C=C3/SC(=O)N(CC(=O)N4CCOCC4)C3=O)c2C)cc1 | 1%

The results go on:
HPGD block,structure
-11%,CCOc1ccc(NC(=O)CCN2CCCCC2)cc1
-14%,CCOC(=O)N1CCN(S(=O)(=O)c2ccc(C(=O)Nc3nnc(C4CC4)o3)cc2)CC1
-5%,CC12CN3CCN(CC(C3)C1(O)CN1CCCCC1)C2 (stereo not drawn)
2%,O=C(Nc1cccc2ccccc12)c1cnccn1
-1%,CN(C)Cc1ccccc1-c1nccc(NC2CC2)n1
-6%,COc1cccc(NC(=O)c2ccc(Cn3cc([N+](=O)[O-])cn3)o2)c1
-16%,O=C(NCc1ccco1)C(=O)NCC1OCCCN1S(=O)(=O)c1ccccc1 (stereo not drawn)
?,CN(C)S(=O)(=O)c1ccc2nc(NC(=O)c3cccs3)sc2c1
?,COc1ccc2nc(NC(=O)c3cccc(S(=O)(=O)N4CCOCC4)c3)sc2c1
-14%,CSc1ccc(OC2CCCCC2NS(=O)(=O)c2ccccc2)cc1 (stereo not drawn)
-15%,CC(=O)N1CN(Cc2ccccn2)Cc2c1sc1c2CCCC1
-18%,Cc1ccc(S(=O)(=O)N(CCC#N)C2CCCCC2)c2nsnc12

Grouped by structure, the compounds so far containing a COOH group
HPGD block,structure
-2%,O=C(O)c1ccccc1C(=O)Nc1nccs1
-9%,O=C(O)C(Cc1ccccc1)Cc1ccccc1
-12%,Cn1c(=O)n(CCC(=O)O)c2ccccc21

Next part.
HPGD block,structure
-8%,CNC(=S)N1CCN(C(=O)c2ccco2)CC1
?,CN=C1c2c(-c3ccccc3)c3cc(OC)ccc3n2CCN1C
-25%,COc1cc2nc(NC(=O)c3ccc(Cl)cc3)[nH]c(=O)c2cc1OC
-7%,CCCCC(OC(=O)c1cc2occc2n1C)C(=O)NCC1CCCO1 (stereo not drawn)
-6%,CCOc1ccc(Br)cc1CSC(=N)N
-14%,Cc1cc(C)cc(N(C(=O)c2cc3ccccc3oc2=O)C2C=CS(=O)(=O)C2)c1 (stereo not drawn)
-10%,O=C(N/N=C/c1cn(CCOc2ccccc2)c2ccccc12)c1ccncc1
-1%,O=C(CN1CCOCC1)Nc1ccccc1Sc1ccc(Cl)cc1
1%,O=C(CSc1nc(C2CCCCC2)n(-c2ccccc2)n1)NCC(F)(F)F
-5%,COC(=O)c1c(NC(=O)C2C3C=CC(CC3)C2C(=O)O)sc(C)c1C (stereo not drawn)
